TRPML1 blocker = inhibitors of human TRPML1 channel | TRPML1-inducible cells, Ca2+ dye fluorescence, FDSS; hits give low values; inhibition of EC80 agonist-evoked calcium signal | activity change, negative = inhibition, % (concentration not given with the values) | Q9GZU1 | 390,000 compounds, 0.02% hits; in the data active means activity change below about -50%; inconclusive means about -30% to -50%; inactive means above about -30%;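 also: stimulus is agonist 54-4 at its EC80 concentration; % is scaled to controls: 0 for no effect and ±100 for the full control effect; the text of the record puts the active cut at -80%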
Target sequence (Q9GZU1 whole entry, looked up): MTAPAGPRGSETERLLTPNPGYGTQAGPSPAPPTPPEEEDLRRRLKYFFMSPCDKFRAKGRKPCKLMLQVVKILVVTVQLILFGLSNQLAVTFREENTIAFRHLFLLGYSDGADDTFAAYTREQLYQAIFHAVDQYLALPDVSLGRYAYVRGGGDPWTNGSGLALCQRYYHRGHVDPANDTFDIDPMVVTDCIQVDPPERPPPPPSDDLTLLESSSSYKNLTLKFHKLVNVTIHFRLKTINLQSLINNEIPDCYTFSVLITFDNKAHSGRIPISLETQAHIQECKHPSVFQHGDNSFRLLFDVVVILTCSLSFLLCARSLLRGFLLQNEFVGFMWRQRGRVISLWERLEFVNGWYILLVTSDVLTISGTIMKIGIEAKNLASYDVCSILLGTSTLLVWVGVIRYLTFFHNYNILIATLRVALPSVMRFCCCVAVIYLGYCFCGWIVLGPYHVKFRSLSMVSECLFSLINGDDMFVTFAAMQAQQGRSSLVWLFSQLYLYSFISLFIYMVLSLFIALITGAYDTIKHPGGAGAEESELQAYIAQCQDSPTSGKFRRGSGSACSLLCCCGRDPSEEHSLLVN
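Calcium fluorescence in TRPML1-DL cells induced overnight with Tet: a 110 s read after compound pin addition, then a 110 s antagonist read after challenge with 54-4 at 4 uM final (EC80).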
CtBP-E1A blk = inhibitors of CtBP/E1A interaction | AlphaScreen GST-E1A/His-CtBP binding, 1536-well; hits give low values; control for the full effect not named in the record | activity change, % (test concentration not listed) | 340,000 compounds, 0.49% hits | AID 651724; in the data active means activity change below about -65%; inconclusive means about -30% to -65%; inactive means above about -30%; also: % is scaled to controls: 0 for no effect and ±100 for the full control effect
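GST-E1A and His-tagged CtBP (125 nM each as 5X stock) were preincubated with pin-transferred compound for 2 h at 37 °C in the dark, then glutathione donor and nickel acceptor beads were added for 1 h before AlphaScreen reading.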
Six1-Eya2 blk = blocks human Six1 binding to Eya2; Q15475+O00167; AlphaScreen GST-Six1/His-Eya2 binding, biochemical; hits give low values; control for the full effect not named in the record; activity change, % (no concentration beside the values); 360,000 compounds, 0.56% hits; AID 651725; in the data active = activity change below about -65%; inconclusive = about -30% to -65%; inactive = above about -30%; also: % is scaled to controls: 0 for no effect and ±100 for the full control effect
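GST-Six1 + His-Eya2 (5X stock: 250/500 nM); Tris pH 8.0, 300 mM NaCl, 0.05% BSA, 0.02% Tween 20; GSH donor/Ni acceptor beads; 1 h 37 °C dark; AlphaScreen readout.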
D2 ag = activates the human D2 dopamine receptor; activation, % (no concentration beside the values); AID 624465; DiscoveRx PathHunter D2 beta-arrestin, luminescence, 90 min; 100% = 57 uM dopamine signal; 360,000 compounds, 0.084% hits; in the data active = activation above about 40%; inconclusive = about 15% to 40%; inactive = below about 15%; also: compound concentration not given in the record; the text of the record calls up to 30% inactive
Target sequence (P14416 whole entry, looked up): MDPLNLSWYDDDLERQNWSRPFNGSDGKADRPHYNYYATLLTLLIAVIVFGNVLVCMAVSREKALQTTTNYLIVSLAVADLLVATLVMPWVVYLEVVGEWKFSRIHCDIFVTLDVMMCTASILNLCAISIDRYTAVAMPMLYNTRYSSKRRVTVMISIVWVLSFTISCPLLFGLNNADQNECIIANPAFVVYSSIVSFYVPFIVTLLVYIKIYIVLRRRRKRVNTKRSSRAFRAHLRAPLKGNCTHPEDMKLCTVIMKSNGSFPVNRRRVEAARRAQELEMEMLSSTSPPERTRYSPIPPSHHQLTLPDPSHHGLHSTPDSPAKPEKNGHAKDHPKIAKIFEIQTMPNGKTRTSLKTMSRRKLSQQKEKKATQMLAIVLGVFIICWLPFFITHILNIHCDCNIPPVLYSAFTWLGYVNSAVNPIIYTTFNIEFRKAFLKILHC
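Agonist mode: compounds alone added to overnight-plated D2 PathHunter cells for 90 min at 37 C, with 57 uM final dopamine (EC100) defining full response. Beta-arrestin recruitment detected by chemiluminescent reagent, read after 1 h at ambient temperature.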
PINK1 expr mod = modulators of PINK1 expression | PINK1 immunofluorescence, high-content cytometry, 24 h | 410,000 compounds, 0.2% hits | Potency, µM (series often up to 76.6 µM), inactives show top-dose activation (PINK1 increase), most hits filed as activators; active = well fitted activation curve with a large enough effect; inconclusive = small, poorly fitted or top-dose-only effect; inactive = flat fitted curve, though single readings scatter; cell line not stated here;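 also: potency is read from the fitted curve at half-maximal effect; % of control where 0% means no effect; nearly all actives have a fitted effect of over 65% in size; a mitochondrial uncoupler was the plate control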
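PINK1 protein level read as immunofluorescence by microplate cytometer in a fixed, stained stable cell line after 24 h exposure to five compound concentrations, with CCCP as control.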
TRPML1 ag = agonists of human TRPML1 channel | activation, % (no concentration beside the values) | Q9GZU1 | TRPML1-expressing cells, Ca2+ dye fluorescence, FDSS; host cell line not named in the record; reference of the full effect not given here | 410,000 compounds, 0.12% hits; in the data active = activation above about 50%; inconclusive = about 30% to 50%; inactive = below about 30%; also: 0% is about no effect; the text of the record puts the active cut at 80%
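Agonist activity was taken from a 110 s kinetic Ca2+ dye read on the FDSS after pinning compounds onto TRPML1-DL cells. The cells were seeded at 1,500/well with Tet inducer, incubated about 16 h, then dye-loaded at room temperature.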
The depositor's hits bear a star; ? = inconclusive; nt = not tested or not shown; [ ] = another dose, or the depositor's remark.

molecule	TRPML1 blocker	CtBP-E1A blk	Six1-Eya2 blk	D2 ag	PINK1 expr mod	TRPML1 ag
O=C(CN1C(=O)C(=O)N(C2CCCC2)C1=O)Nc1ccc(OC(F)F)cc1	-13	9	3	3.3	0.7%	2.8
O=S(=O)(Nc1ccncc1)c1ccc(Cl)c(Cl)c1	6	-3	0	1.8	-0.4%	0.3
COC(=O)c1ccc(-n2ccnc2)cc1	-16	-1	10	-3.9	11%	-0.4
O=C(NCc1cccs1)C(Cc1ccccc1)n1cccc1 (stereo unspecified)	-18	-5	16	-5.1	2.7%	0.8
CC1C(=O)N2CCCc3cc(S(=O)(=O)N4CCCCC4)cc1c32 (stereo unspecified)	7	5	4	3.6	-0.2%	0.3
CCn1c(SCC(=O)OCC(=O)N2c3ccccc3NC(=O)C2(C)C)nnc1-c1ccco1	0	-1	0	-4.1	0.0%	-0.9
COc1cc(C(=O)N2CCC(NC(=O)C(Cc3ccc(C(C)C)cc3)NC(C)=O)CC2)cc(OC)c1OC (stereo unspecified)	5	4	4	-2.0	-4.2%	1.7
Cc1ccc(NC(=S)NCC2CCCO2)cc1 (stereo unspecified)	-7	-1	2	0.8	-4.3%	0.4
CC1=C(c2ccc(C)cc2)S(=O)(=O)NC1=NCCCN1CCN(c2ccc(F)cc2)CC1	0	nt	nt	nt	0.0%	-0.3
N#Cc1cc2c(=O)n3ccccc3nc2n(-c2ccc(Cl)cc2)c1=O	19	nt	13	-8.3	15%	1.5
CCN(C(=O)CSc1nnc(-c2c[nH]c3ccccc23)n1C1CC1)C1CCS(=O)(=O)C1 (stereo unspecified)	-3	5	4	-1.8	-1.1%	-0.2
Cn1nnnc1SCc1nc2ccccc2s1	-4	1	-6	-6.0	-0.5%	-0.8
CSc1nc2ccc(S(=O)(=O)N3CCCC3)cc2s1	7	6	1	-1.8	-1.8%[38.3 µM]	-0.4
O=C(CSc1nnc(Cc2cccs2)n1C1CCCCC1)N1CCCc2ccccc21	-2	-5	-2	-0.6	-2.3%	0.3
Cc1cc(C(=O)COC(=O)c2ccc(O)cc2)c(C)n1CC1CCCO1 (stereo unspecified)	-13	4	-5	-0.2	2.8%	0.3
CCOC(=O)c1ccc(NC(=O)c2ncn3c2C(=O)NC[C@H]3C)cc1	4	-1	-3	-8.0	0.8%	-0.6
C/C(=N\NC(=O)Cc1csc(N2CCOCC2)n1)c1ccc(Cl)c(Cl)c1	16	-5	-2	-5.4	0.4%	0.5
CCOC(=O)N1CCN(c2nc(-c3ccc(F)cc3)cs2)CC1	1	-4	-3	0.9	-0.2%	2.5
COc1cc(-c2cc(OC)c3c(C)oc(C)c3c(=O)c2)ccc1OC(=O)c1cccc(Cl)c1	-11	nt	nt	nt	0.4%	0.9
COc1cc(C2C(=O)N(C3CCCCC3)CC(=O)N2CCC2=CCCCC2)ccc1OC(C)C (stereo unspecified)	0	nt	nt	nt	8.0%	0.2

Next section (three carried over from the part before).
molecule	TRPML1 blocker	CtBP-E1A blk	Six1-Eya2 blk	D2 ag	PINK1 expr mod	TRPML1 ag
CCOC(=O)N1CCN(c2nc(-c3ccc(F)cc3)cs2)CC1	1	-4	-3	0.9	-0.2%	2.5
COc1cc(-c2cc(OC)c3c(C)oc(C)c3c(=O)c2)ccc1OC(=O)c1cccc(Cl)c1	-11	nt	nt	nt	0.4%	0.9
COc1cc(C2C(=O)N(C3CCCCC3)CC(=O)N2CCC2=CCCCC2)ccc1OC(C)C (stereo unspecified)	0	nt	nt	nt	8.0%	0.2
COC(=O)CSc1nnc(CNC(=O)Cc2ccccc2)n1C	4	8	0	-1.8	-2.6%[38.3 µM]	0.2
Nc1nnc(C(=O)c2ccccc2N)s1	-16	?	-23	-4.4	0.0%[38.3 µM]	3.0
Cc1cccc(N2CCN(C(=O)CCCn3c(=O)c4cccn4c4cccnc43)CC2)c1C	0	-19	-16	0.8	-0.3%	1.8
S=C(NNc1ccc2ccccc2c1)NC1CCCCC1	-7	?	?	-3.0	9.3%	1.8
CCc1noc(C)c1C(=O)N1CCCSC1=Nc1ccccc1Cl	21	-14	9	1.8	0.2%	0.7
CCCc1nc2ccccc2c(=O)n1CC(=O)c1ccc(OC)cc1	-13	0	11	-3.5	17%	1.9
CC1(C)Oc2ccc3ccc(=O)oc3c2/C(=C/Nc2cccc(O)c2)C1=O	-8	-16	-22	7.2	-3.6%	1.0
CCOC(=O)c1cc(-c2ccc(C)cc2)n(CCC(=O)NCCN(C)C)c1C	-1	-18	-16	-1.7	-2.1%[38.3 µM]	0.1
Cc1ccc(NC(=O)N(CCCN2CCOCC2)Cc2cccnc2)cc1C	8	4	0	-4.7	-0.2%	-0.3
COc1ccccc1Nc1nc(-c2ccccc2)c(CC(=O)O)s1	-21	nt	nt	nt	0.9%	-0.8
CC1(C)CC(NC(=O)Nc2ccc([N+](=O)[O-])cc2)CC(C)(C)N1	-9	0	-17	-7.9	0.4%	-0.3
O=C(CCNC(=O)c1ccccc1Cl)NCC1COc2ccccc2O1 (stereo unspecified)	9	-1	5	-1.5	-3.7%	1.3
CCCCN(CCCC)C(=O)CSc1nnc(-c2cc(OC)c(OC)c(OC)c2)o1	6	-4	-9	-1.3	11%[38.3 µM]	3.8
CCCCN1CC(=O)N2[C@H]3c4ccc(OC)cc4OC[C@@H]3[C@H](c3ccccc3)[C@]2(C)C1=O	4	-1	-8	-0.5	0.8%	-0.5
Cc1cc(NC(=O)CCC(=O)N(c2ccc(F)cc2)C(C(=O)NC2CCCC2)c2ccncc2)no1 (stereo unspecified)	-12	7	-3	-5.5	0.3%	0.2
C=C1N(CCCCCC(=O)O)C(=O)OC12CCCCC2	8	9	4	-2.5	2.3%	-1.0
Cn1c(Cl)c(C(=O)Nc2ccccc2)c2ccccc21	3	-7	-5	-2.5	-1.8%	0.0
COC(=O)C1CCN(C(=O)COC(=O)CNS(=O)(=O)c2ccc(SC)c([N+](=O)[O-])c2)CC1	15	-4	-1	-1.8	2.2%	-0.2
Cc1n[nH]c(C)c1CNCc1c(C(=O)N2CCCCCCC2)nc2ccc(Cl)cn12	3	-4	4	-3.0	-0.3%	1.0
CCn1nc(NS(=O)(=O)c2ccccc2)c2cc3ccc(C)cc3nc21	-27	nt	26	-5.0	0.0%	0.6
CCOC(=O)c1c(/N=C/C2=C(O)CC(C)(C)CC2=O)sc(C(C)=O)c1C	47	1	-4	-3.1	-0.5%	-0.4
COc1ccc(C(=O)Nc2cc(C)c(NC(=O)c3ccccc3OC)cn2)cc1	5	-6	-12	-1.6	10%	-0.3
O=c1[nH]c(=S)[nH]c2c1CN(Cc1ccc(F)cc1)CC2	-3	nt	-10	-3.8	-0.1%	-0.3
COc1cnc(-c2ccccc2)nc1Sc1ccccc1	6	-6	11	-3.0	1.0%	5.3
Oc1oc(-c2ccccc2Br)nc1C=Nc1ccc(Br)cn1	6	5	0	-1.4	7.5%	0.1
CC(CC(=O)NCc1ccco1)S(=O)(=O)c1ccc2c(c1)CCN2C(=O)C1CC1 (stereo unspecified)	-22	3	-1	2.4	7.7%	0.0
CC[C@@H]1C(c2ccccc2)=NN(c2ccc(Br)cc2)[C@H]1C(=O)N1CCOC1=O	28	50	33	-0.9	0.3%	0.2
COc1cc(C(CC(=O)NCc2ccccc2)N2Cc3ccccc3C2=O)cc(OC)c1OC (stereo unspecified)	14	nt	nt	nt	-3.6%	2.5
Oc1cccc2oc(=S)[nH]c12	-10	5	-2	-6.3	5.6%	-0.7
C#CC(C)(C)NC(=O)c1cnc(-c2ccccc2)nc1-c1ccccc1	7	nt	5	0.6	2.8%	1.6
C=CCN(c1ccc(C(=O)NCCN2CCOCC2)cc1)S(C)(=O)=O	4	6	6	2.6	1.1%	-0.5
COc1ccccc1-c1nc2cc(Cl)ccc2c(=O)n1O	7	-9	-3	-5.3	3.9%	-0.4
O=C(CCCN1C(=O)c2ccccc2C1=O)N1CCc2ccccc2C1	-25	0	4	-2.2	nt	1.7
COC(=O)c1ccc(-n2nnnc2SCC(=O)NCc2cccc(C(=O)O)c2)cc1	-2	7	-1	-1.5	2.3%	-0.1
c1coc(-c2nc3nc4ccccc4nc3n2CC2CCCO2)c1 (stereo unspecified)	-3	-1	0	-1.8	4.5%[38.3 µM]	2.0
CC1(C)COC(=S)N1CCC#N	32	5	2	-5.7	3.9%	0.6
Cc1ccc(C(=O)CSc2ccccc2C(=O)O)cc1	4	nt	-2	-6.7	-0.4%	1.2
Cn1c(=O)cc(N2CCc3ccccc32)[nH]c1=O	1	-5	-11	-3.0	0.8%	-0.1
CCC(C)(C)NC(=O)Cc1ccc(F)cc1	-7	-8	11	-5.8	4.9%	0.9
COc1ccc(-c2nn(-c3ccccc3)cc2CNC[C@H]2O[C@@H](n3cnc4c(=O)[nH]c(N)nc43)[C@H](O)[C@@H]2O)cc1	4	-4	-12	-5.6	1.0%	-0.5
COc1cccc(C(=O)C(=O)c2cccc(OC)c2OC)c1OC	3	6	8	0.8	-0.2%	0.1
COc1ccc(CCNC(=O)CSc2nc3ccccc3nc2Cc2ccc(Cl)cc2)cc1OC	-11	nt	nt	nt	0.4%	-0.6
Cc1ccc(SCC2(O)CCN(C(=O)c3ccc(Cl)cc3)CC2)cc1	?	10	-3	-0.9	-1.9%	1.1
CCOc1ccc(-c2c(C)nn3c(C)c(C(=O)NCCc4ccccc4)cnc23)cc1OCC	-9	nt	nt	nt	4.6%	2.6
CC1(C)Cc2ccccc2-c2nnc(-c3cccc(O)c3)n21	-1	-3	-3	-1.4	-0.6%	-0.7
COc1ccccc1CCNS(=O)(=O)c1ccc(C(=O)O)n1C	22	11	5	-2.1	0.8%	-0.1
CN1OC(Cn2cc(C#N)c(=O)n(C)c2=O)CC1c1ccccc1 (stereo unspecified)	-7	-22	1	0.5	-1.9%	0.1
CN(C)S(=O)(=O)c1cccc(NC(=O)Cc2ccc(Cl)cc2)c1	44	1	-1	-0.8	2.0%	-0.4
O=S(=O)(NCc1ccccn1)c1ccccc1	-8	6	0	-3.4	-0.7%	-0.9
O=C(NCc1ccc(Cl)cc1)NCc1ccc(Cl)cc1	0	-15	21	-6.3	0.3%	0.6

Among those listed so far, three contain a thiophene ring, fused or not:
molecule	TRPML1 blocker	CtBP-E1A blk	Six1-Eya2 blk	D2 ag	PINK1 expr mod	TRPML1 ag
O=C(NCc1cccs1)C(Cc1ccccc1)n1cccc1 (stereo unspecified)	-18	-5	16	-5.1	2.7%	0.8
O=C(CSc1nnc(Cc2cccs2)n1C1CCCCC1)N1CCCc2ccccc21	-2	-5	-2	-0.6	-2.3%	0.3
CCOC(=O)c1c(/N=C/C2=C(O)CC(C)(C)CC2=O)sc(C(C)=O)c1C	47	1	-4	-3.1	-0.5%	-0.4
